Screening data (PubChem BioAssay)
HCMV NEC inh = inhibitors of HCMV UL50-UL53 nuclear egress complex interaction; 190,000 tested, 0.15% active; inhibition, % (no concentration beside the values); HTRF UL50-UL53 interaction, normalized percent inhibition;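 active means both replicates at 50% or more, plus weaker picks with an unusually low signal ratio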;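 further: stock transfer was 100 nL into about 20 µL; 0% = negative control wells and 100% = wells with untagged competitor protein; inactives centre near -12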
The depositor's hits bear a star; & = joins results of further samples. Only part of the results is shown (hit frequency here may not be typical).

C[C@]12CC[C@H](O)C[C@H]1CC[C@@H]1[C@@H]2C[C@@H](O)[C@]2(C)[C@@H](C3=CC(=O)OC3)CC[C@]12O was read as HCMV NEC inh -22.
COc1cc2c(cc1O)C[C@H]1c3c(cc(O)c(OC)c3-2)CCN1C was read as HCMV NEC inh -8.
Screening C[C@H]1CCC2(NC1)O[C@H]1C[C@H]3[C@@H]4CC[C@H]5C[C@@H](O[C@@H]6O[C@H](CO)[C@H](O[C@@H]7O[C@H](CO)[C@@H](O)[C@H](O[C@@H]8OC[C@@H](O)[C@H](O)[C@H]8O)[C@H]7O[C@@H]7O[C@H](CO)[C@@H](O)[C@H](O)[C@H]7O)[C@H](O)[C@H]6O)CC[C@]5(C)[C@H]4CC[C@]3(C)[C@H]1[C@@H]2C (stereo partly drawn) returned HCMV NEC inh -11.
Screening O=C1C=C2C=C[C@@H]3CC2(O1)[C@H]1CCCCN31 returned HCMV NEC inh -14.
`O=C(O)c1ccc2[nH]cc(CCCCN3CC=C(c4ccccc4)CC3)c2c1` gave HCMV NEC inh -4.
`CO/C1=C\C(C)=C\[C@@H](C)[C@@H](O)[C@@H](C)C/C(C)=C/C=C/[C@H](OC)[C@@H]([C@@H](C)[C@@H](O)[C@H](C)[C@@]2(O)C[C@@H](O)[C@H](C)[C@@H](C(C)C)O2)OC1=O` gave HCMV NEC inh -19.
For CC(=O)O[C@@]12CO[C@@H]1CC(O)[C@@]1(C)C(=O)C(O)C3=C(C)C(O)C[C@@](O)(C(OC(=O)c4ccccc4)[C@H]21)C3(C)C (stereo partly drawn) the results were HCMV NEC inh -7.
For CCCOc1ccc2[nH]cc(C3=CCNCC3)c2n1 the results were HCMV NEC inh -7.
N#CC(CCN1CCOCC1)(c1ccccc1)c1ccccc1 was read as HCMV NEC inh 0.
`CC1=C(O)C(=O)C=C2C1=CC=C1[C@@]2(C)CC[C@@]2(C)[C@@H]3C[C@](C)(C(=O)O)CC[C@]3(C)CC[C@]12C` gave HCMV NEC inh -16&-16.
Screening CC(C)(C)n1cc(C(=O)c2ccccc2O)cn1 returned HCMV NEC inh -3.
Screening O=C(O)c1cn(Cc2ccc(Cl)cc2)c2ccccc12 returned HCMV NEC inh 8.
`COc1c2c(cc3c1OCO3)CCN(C)C2` gave HCMV NEC inh -13.
Screening O=[N+]([O-])c1ncc[nH]1 returned HCMV NEC inh -28.
CN1CC[C@@H]2CN3CCc4cccc(c43)[C@@H]2C1 was read as HCMV NEC inh -18.
c1cncc(C2=NCCC2)c1 was read as HCMV NEC inh -1.
`C[C@H](CCC(=O)O)C[C@H](C)C[C@H](C)C(=O)/C=C(\O)[C@H](C)C[C@H](C)C/C=C/[C@@H](C)[C@@H](O)[C@@H](C)[C@@H](O)C[C@@H]1CC[C@@](C)([C@H]2CC[C@@](C)([C@@H](C)O)O2)O1` gave HCMV NEC inh -9.
For CN(C(Cc1ccc(OOSOc2cccc3cnccc23)cc1)C(=O)N1CCN(c2ccccc2)CC1)S(=O)(=O)c1cccc2cnccc12 (stereo not drawn) the results were HCMV NEC inh 2.
`CN(C)C(=O)Oc1ccc2cc(Br)ccc2c1Br` gave HCMV NEC inh -13.
For C=C(C)[C@@H]1C2C(=O)O[C@H]1[C@H]1OC(=O)[C@@]34OC3C[C@]2(O)[C@@]14C (stereo partly drawn) the results were HCMV NEC inh -20.

An excerpt from above in order of molecular weight, highest first.
Screening C[C@H]1CCC2(NC1)O[C@H]1C[C@H]3[C@@H]4CC[C@H]5C[C@@H](O[C@@H]6O[C@H](CO)[C@H](O[C@@H]7O[C@H](CO)[C@@H](O)[C@H](O[C@@H]8OC[C@@H](O)[C@H](O)[C@H]8O)[C@H]7O[C@@H]7O[C@H](CO)[C@@H](O)[C@H](O)[C@H]7O)[C@H](O)[C@H]6O)CC[C@]5(C)[C@H]4CC[C@]3(C)[C@H]1[C@@H]2C (stereo partly drawn) returned HCMV NEC inh -11.
For CC(=O)O[C@@]12CO[C@@H]1CC(O)[C@@]1(C)C(=O)C(O)C3=C(C)C(O)C[C@@](O)(C(OC(=O)c4ccccc4)[C@H]21)C3(C)C (stereo partly drawn) the results were HCMV NEC inh -7.
`CC1=C(O)C(=O)C=C2C1=CC=C1[C@@]2(C)CC[C@@]2(C)[C@@H]3C[C@](C)(C(=O)O)CC[C@]3(C)CC[C@]12C` gave HCMV NEC inh -16&-16.
C[C@]12CC[C@H](O)C[C@H]1CC[C@@H]1[C@@H]2C[C@@H](O)[C@]2(C)[C@@H](C3=CC(=O)OC3)CC[C@]12O was read as HCMV NEC inh -22.
`O=C(O)c1ccc2[nH]cc(CCCCN3CC=C(c4ccccc4)CC3)c2c1` gave HCMV NEC inh -4.
`CN(C)C(=O)Oc1ccc2cc(Br)ccc2c1Br` gave HCMV NEC inh -13.
COc1cc2c(cc1O)C[C@H]1c3c(cc(O)c(OC)c3-2)CCN1C was read as HCMV NEC inh -8.
For C=C(C)[C@@H]1C2C(=O)O[C@H]1[C@H]1OC(=O)[C@@]34OC3C[C@]2(O)[C@@]14C (stereo partly drawn) the results were HCMV NEC inh -20.
For CCCOc1ccc2[nH]cc(C3=CCNCC3)c2n1 the results were HCMV NEC inh -7.
`COc1c2c(cc3c1OCO3)CCN(C)C2` gave HCMV NEC inh -13.
Screening O=C1C=C2C=C[C@@H]3CC2(O1)[C@H]1CCCCN31 returned HCMV NEC inh -14.
c1cncc(C2=NCCC2)c1 was read as HCMV NEC inh -1.
Screening O=[N+]([O-])c1ncc[nH]1 returned HCMV NEC inh -28.

(more compounds)
For C[C@]12CC[C@H]3[C@@H](CC[C@]4(O)C[C@@H](O)CC[C@]34C=O)[C@@]1(O)CC[C@@H]2C1=CC(=O)OC1 the results were HCMV NEC inh -29.
`CCN1C[C@@]2(COC)C3[C@@H](OC)[C@H]4[C@@H]1[C@@]3(C1C[C@@]3(O)[C@H](OC(=O)c5ccccc5)C1[C@]4(OC(C)=O)[C@@H](O)[C@H]3OC)[C@@H](OC)C[C@H]2O` (stereo partly drawn) gave HCMV NEC inh -16.
`O=C(O)CCC(CP(=O)(O)O)C(=O)O` (stereo not drawn) gave HCMV NEC inh -12.
For O=C(NCCN1CCC2(CC1)C(=O)NCN2c1ccccc1)c1ccc2ccccc2c1 the results were HCMV NEC inh -10&-10.
`Cc1cc(SCc2sc(-c3ccc(C(F)(F)F)c(F)c3)nc2C)ccc1OCC(=O)O` gave HCMV NEC inh -158&9&9.
For CCCC(=O)N[C@H]1CCOC1=O the results were HCMV NEC inh -24&-24.
Screening CN1C2CCC1CC(OC(c1ccccc1)c1ccc(Cl)cc1)C2 (stereo not drawn) returned HCMV NEC inh -9.
For CC(CCCC(C)(C)O)NC(C)Cc1ccccc1F (stereo not drawn) the results were HCMV NEC inh -7.
Screening CCCCC/C=C\C/C=C\C/C=C\C/C=C\CCCC(=O)N[C@H](C)COP(=O)(O)O returned HCMV NEC inh 6&6.
For CN1[C@@H]2CC(=O)C[C@H]1[C@H](O)C2 the results were HCMV NEC inh -8.
